# FPR binding: FPR binders displacing fluorescent formyl peptide, primary screen, U937-FPR cells, fMLFK-FITC, flow cytometry (AID 362); fMet-Leu-Phe receptor (Homo sapiens); U937-FPR cells, fMLFK-FITC displacement, flow cytometry; stronger effect = higher value; test concentration not given here; most inactive calls were filed without a number and no value below 0 was filed; inhibition, %; actives 1% (n = 4,300);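 active = inhibition of labelled peptide binding to the formyl peptide receptor of at least 65%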;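 also: plate controls were buffer control wells for no effect and unlabeled fMLFF blocking peptide for full effect; higher means less cell fluorescence so more probe displaced; part of the set was picked by virtual screening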
# * = called active by the depositor; i = inactive. An excerpt (hit frequency here may not be typical).
# Preview, three compounds:
FPR binding | mol
78* | COc1ccc(C2C(C(=O)OC3CCCCC3)=C(C)NC3=C2C(=O)CC(c2ccc(Cl)cc2)C3)cc1OC (stereo not given)
i | CCCOC(=O)C1=C(C)NC2=C(C(=O)C(C(=O)OC)C(C)C2)C1c1ccc(OC)c(O)c1 (stereo not given)
i | O=C(C1CCC(CNS(=O)(=O)c2ccc(F)cc2)CC1)N1CCOCC1 (stereo not given)

# The listing, from the first entry:
FPR binding | mol
78* | COc1ccc(C2C(C(=O)OC3CCCCC3)=C(C)NC3=C2C(=O)CC(c2ccc(Cl)cc2)C3)cc1OC (stereo not given)
i | CCCOC(=O)C1=C(C)NC2=C(C(=O)C(C(=O)OC)C(C)C2)C1c1ccc(OC)c(O)c1 (stereo not given)
i | O=C(C1CCC(CNS(=O)(=O)c2ccc(F)cc2)CC1)N1CCOCC1 (stereo not given)
i | CCN(CC)CCCNc1ccc(N2C(=O)C3C4C=CC(C4)C3C2=O)cc1[N+](=O)[O-] (stereo not given)
i | CCOc1ccc(C2C(C(=O)OC3CCCCCC3)=C(C)NC3=C2C(=O)C(C(=O)OC)C(C)C3)cc1 (stereo not given)
i | O=C1C2=C(c3cc(O)ccc3O)CCCN2C(=O)CN1Cc1ccccc1
i | CC(C)CC(NC=C1C(=O)OC(C)(C)OC1=O)C(=O)O (stereo not given)
i | COc1ccc(-n2c3c(c(=O)[nH]c2=O)C(NC(=O)c2ccncc2)(C(F)(F)F)C(=O)N3)cc1 (stereo not given)
i | CSc1cccc(NC(=O)C2CCC(CNS(=O)(=O)c3ccc(Br)s3)CC2)c1 (stereo not given)
i | OC(CC#CCN1CCOCC1)(c1ccccc1)C1CCCC1 (stereo not given)
i | CCOc1ccc(C2NC(=O)NC(C)=C2C(=O)OCC(C)C)cc1 (stereo not given)
2 | COc1ccc(CNC(=O)CCCCCn2c(SCC(=O)NC3CCCCC3)nc3cc4c(cc3c2=O)OCO4)cc1
26 | CCCCc1c(C)nc2ccccc2c1SCCC(=O)O
i | CCN1CCCC1CNC(=O)CSc1c2c(nc3ccccc13)CCCC2 (stereo not given)
12 | O=C(NC1CCCCCC1)C1CCC(CNS(=O)(=O)c2ccccc2)CC1 (stereo not given)
i | CCCC1=C(C(=O)OCC)C(c2cc(OC)c(OC)c(OC)c2)NC(=O)N1 (stereo not given)
40 | COC(=O)C1C(=O)C2=C(CC1C)NC(C)=C(C(=O)OC(C)C)C2c1ccc(N(C)C)cc1 (stereo not given)
17 | O=c1cc(O)c2sc3nc4c(c(C(F)(F)F)c3c2[nH]1)CCCCC4
5 | CC(=O)C1=C(C)NC(=S)NC1c1ccccc1O (stereo not given)
i | O=C(O)c1cc(N2C(=O)C3C4CCC(C4)C3C2=O)ccc1Cl (stereo not given)
11 | COc1ccc(C2C(C(=O)N3CCC(Cc4ccccc4)CC3)CCC(=O)N2c2cc(OC)c(OC)c(OC)c2)cc1 (stereo not given)
i | CCC(CO)Nc1nc(C)nc2sc3c(c12)CCCC3 (stereo not given)
i | CCOC(=O)CCN(Cc1cc(OC)ccc1OC)S(=O)(=O)c1cccc(C(F)(F)F)c1
16 | COc1ccc(C2C(C(=O)OC3CCCCC3)=C(C)Nc3nnnn32)cc1OC (stereo not given)
i | CCCCN(CC)S(=O)(=O)N1CCC(C(=O)NC(C)c2ccccc2)CC1 (stereo not given)
i | CC(C)CCOc1ccc(C(=O)CCNC(C(=O)O)C(C)C)cc1 (stereo not given)
i | CC1(C)CC(=O)C2=C(C1)Nc1nnnn1C2c1ccc(F)cc1 (stereo not given)
i | COc1ccc(C2C(=O)N(C3CCCC3)CC(=O)N2C2CCCc3ccccc32)cc1 (stereo not given)
i | CCN(CC)C(=O)c1cc2c(n(-c3ccc(OC)cc3)c1=O)CC(C)(C)CC2=O
11 | CCCOC(=O)C1=C(C)NC2=C(C(=O)C(C(=O)OC)C(C)C2)C1c1cccc(OC)c1OC (stereo not given)

# Filtered by structure, those above containing a thiophene ring, fused or not (three)
FPR binding | mol
i | CSc1cccc(NC(=O)C2CCC(CNS(=O)(=O)c3ccc(Br)s3)CC2)c1 (stereo not given)
17 | O=c1cc(O)c2sc3nc4c(c(C(F)(F)F)c3c2[nH]1)CCCCC4
i | CCC(CO)Nc1nc(C)nc2sc3c(c12)CCCC3 (stereo not given)

# (listing goes on)
FPR binding | mol
7 | CCC(C)OC(=O)C1=C(C)NC2=C(C(=O)C(C(=O)OC)C(C)C2)C1c1cccc(Cl)c1 (stereo not given)
i | O=C(O)CCCCCn1c(SCC(=O)O)nc2ccsc2c1=O
4 | O=C(C1c2ccccc2C(=O)N2CCc3ccccc3C12)N1CCCCC1 (stereo not given)
i | COc1ccc(NC(=O)Cn2cnc3sc(C)c(S(=O)(=O)N4CCC(C)CC4)c3c2=O)cc1Cl
5 | COc1ccc(C2C(C(=O)OCC(C)C)=C(C)NC3=C2C(=O)CC(c2ccc(Cl)cc2)C3)cc1 (stereo not given)
77* | CCOC(=O)c1c(NC(=O)C2CCCCC2C(=O)O)sc(C)c1-c1ccc(Cl)cc1 (stereo not given)
i | CCCCn1c(=NC(=O)c2cccc([N+](=O)[O-])c2)c(C(=O)OCC)cc2c(=O)n3ccccc3nc21
7 | CCN(CCCNC(=O)c1cn(CC(C)C)c(=O)c2c1c1ccccc1n2C)c1ccccc1
24 | CCOc1cc(C2C(C(=O)OC3CCCCC3)=C(C)NC3=C2C(=O)CC(c2ccc(OC)cc2)C3)cc(Cl)c1O (stereo not given)
i | CCCCN(c1nc(C)cc(OC)n1)S(=O)(=O)c1ccccc1Cl
23 | CCOC(=O)c1nc(NCC(=O)OC)c2c3c(sc2n1)CCCC3
i | CC(=O)N1CCc2cc(S(=O)(=O)NC(C(=O)NC3CCCC3)C(C)C)ccc21 (stereo not given)
i | O=C1NC(c2cccc(Oc3ccccc3)c2)C(C(=O)c2cccs2)C(O)(C(F)(F)F)N1 (stereo not given)
i | CCOc1cc(C2NC(=O)NC(C)=C2C(=O)OC2CCCC2)ccc1O (stereo not given)
i | COc1ccc(CN(CC2CCC(C(=O)NO)CC2)S(=O)(=O)c2ccc3c(c2)OCCO3)cc1 (stereo not given)
i | CC1(C)CC(=O)C2=C(C1)NC(=O)CC2c1ccc([N+](=O)[O-])cc1 (stereo not given)
i | CC(=O)Nc1ccc(S(=O)(=O)NCC2CCC(C(=O)N(C)C3CCCCC3)CC2)cc1 (stereo not given)
i | CC(=O)Nc1ccc(S(=O)(=O)Nc2ccc(C(F)(F)F)cc2[N+](=O)[O-])cc1
i | CCOC(=O)C1CCC(CN(Cc2cccc(Br)c2)S(=O)(=O)c2ccc([N+](=O)[O-])cc2)CC1 (stereo not given)
2 | N=c1c(C(=O)NCc2cccnc2)cc2c(=O)n3ccccc3nc2n1C1CCCC1
6 | CCCCCOC(=O)C1=C(C)N(C)C(=O)NC1c1cc(Cl)c(O)c(OC)c1 (stereo not given)
8 | CC(=O)Oc1ccc2oc(=O)c3c(c2c1)CCCN3C(=O)CN1CCC(C)CC1
14 | COc1ccc(C(C(=O)NC2CCCC2)N2CCCC(C)C2)cc1 (stereo not given)
i | CN(CCC#N)C(=O)c1cc2n(n1)C(C(F)(F)F)CC(c1ccc(Cl)cc1)N2 (stereo not given)
10 | CCOc1cc2c(c([N+](=O)[O-])c1)NC(c1ccccc1)C1CC=CC21 (stereo not given)
i | Cc1sc2ncn(CC(=O)Nc3ccc(F)cc3F)c(=O)c2c1S(=O)(=O)N1CCC(C)CC1
i | CCN(CC)CC(O)Cn1c(-c2cccc([N+](=O)[O-])c2)nc(=S)c2c1CCCC2 (stereo not given)
9 | CCCOC(=O)C1=C(C)NC2=C(C(=O)C(C(=O)OC)C(C)C2)C1c1cccc(Br)c1 (stereo not given)
i | COC(=O)c1ccc(C2C3=C(CC(C)(C)CC3=O)N(c3ccc(OC)cc3OC)C3=C2C(=O)CC(C)(C)C3)cc1
i | Cc1ccc(S(=O)(=O)N(CCC#N)C2CCCCC2)c2nsnc12

# Continuation:
FPR binding | mol
16 | CCCc1cc2c(=O)c(-c3ccc4c(c3)OCCO4)coc2cc1OC(C)=O
38 | CCCOCCOC(=O)C1=C(C)NC2=C(C(=O)C(C(=O)OC)C(C)C2)C1c1cccc(OC)c1 (stereo not given)
9 | O=C1C2CCCCC2C(=O)N1c1ccc(N2C(=O)C3C4C=CC(C4)C3C2=O)cc1 (stereo not given)
i | COC(=O)C1C(=O)C2=C(CC1C)NC(C)=C(C(=O)OC1CCCCC1)C2c1cccc([N+](=O)[O-])c1 (stereo not given)
11 | CCCc1cc(=O)oc2cc(O)ccc12
i | O=C(O)C(CCCCN1C(=O)C2C3C=CC(C3)C2C1=O)N1C(=O)C2C3C=CC(C3)C2C1=O (stereo not given)
i | COc1ccc(C2C3=C(CC(C)(C)CC3=O)Nc3ncnn32)c(OC)c1OC (stereo not given)
i | CCOC(=O)C(C(=O)Nc1cccc(C)n1)C1CCCCC1 (stereo not given)
i | CCOC(=O)C1CCC(CN(Cc2ccccc2Cl)S(=O)(=O)c2ccc([N+](=O)[O-])cc2)CC1 (stereo not given)
3 | CCCOC(=O)C1=C(C)NC2=C(C(=O)C(C(=O)OC)C(C)C2)C1c1cc(OC)c(OC)c(OC)c1 (stereo not given)
i | CCCCn1c(=NC(=O)c2c(F)cccc2F)c(C(=O)OCC)cc2c(=O)n3ccccc3nc21
i | N#CC1=C(N)OC2=C(C(=O)CC(c3ccccc3)C2)C1C1CCCCC1 (stereo not given)
i | CCOC(=O)N1CCC(NC(=O)C(NS(=O)(=O)c2ccc3c(c2)CCN3C(C)=O)C(C)C)CC1 (stereo not given)
i | CCOC(=O)c1cc2c(=O)n3ccccc3nc2n(CC(C)C)c1=NC(=O)c1ccc(F)cc1
i | CCCOC(=O)C1=C(C)NC2=C(C(=O)C(C(=O)OC)C(C)C2)C1c1cccc(Cl)c1 (stereo not given)
i | COc1ccc(C2C3=C(CC(C)(C)CC3=O)Nc3nc4ccccc4n32)c(OC)c1OC (stereo not given)
i | CCOc1ccc(C2NC(=O)NC(C)=C2C(=O)OC2CCCC2)cc1OC (stereo not given)
64 | CC1(C)CC(=O)C(C(C2=C(O)CC(C)(C)CC2=O)c2cc(Br)ccc2O)C(=O)C1 (stereo not given)
i | CC(=O)Nc1ccc(S(=O)(=O)NC2CCCC2)cc1
i | CC1CCCN(Cc2c(O)ccc3cc(-c4nc5ccccc5n4C)c(=O)oc23)C1 (stereo not given)
3 | CCCCN(CC)S(=O)(=O)c1ccc2[nH]c(=O)cc(C(=O)O)c2c1
i | CCN(CC)Cc1c(O)ccc2c(=O)c(Oc3cccc(C)c3)c(C(F)(F)F)oc12
i | Cc1sc2ncn(CC(=O)N3CCC(C(N)=O)CC3)c(=O)c2c1S(=O)(=O)N1CC(C)CC(C)C1 (stereo not given)
i | CCCCc1c(C)c(C#N)c2nc3ccccc3n2c1N1CCN(CCO)CC1
i | COc1cc2c(C(=O)N(C)Cc3ccccc3)cn(CC(C)C)c(=O)c2cc1OC
i | CC1=C(C(=O)OCC(C)C)C(c2ccc3c(c2)OCO3)C2=C(CC(c3ccccc3)CC2=O)N1 (stereo not given)
i | CCC(Oc1ccc2c3c(c(=O)oc2c1)CCC3)C(=O)OCC(C)C (stereo not given)
2 | COc1ccc(CN(CC2CCC(C(=O)NO)CC2)S(=O)(=O)c2cc(C)ccc2C)cc1 (stereo not given)
19 | CCOC(=O)c1cnc2cc(C(F)(F)F)ccc2c1N1CCC2(CC1)OCCO2
i | COC(=O)C(NC(=O)C(NC(=O)c1ccc(C23CC4CC(CC(C4)C2)C3)cc1)C(C)C)C(C)C (stereo not given)

# (listing goes on)
FPR binding | mol
i | COc1cc2c(C(=O)N3CCC4(CC3)OCCO4)cn(CC(C)C)c(=O)c2cc1OC
i | CCCc1cc(=O)oc2c(CN3CCCCC3)c(O)ccc12
1 | COC(=O)C1C(=O)C2=C(CC1C)NC(C)=C(C(=O)OC1CCCC1)C2c1ccc(O)cc1 (stereo not given)
i | COc1cccc(N2C(=O)C3C4C=CC(C4=C(C)C)C3C2=O)c1 (stereo not given)
i | C=CCc1c(C)c(C#N)c2[nH]c3ccccc3n2c1=O
24 | COc1cc(C2C(C(=O)OC3CCCCC3)=C(C)NC3=C2C(=O)CC(C)(C)C3)cc(Br)c1O (stereo not given)
i | CN1CCN(C(=O)C23CCC(C)(C(=O)C2)C3(C)C)CC1 (stereo not given)
i | O=C1C2C3C=CC(C3)C2C(=O)N1c1ccc(NCc2ccccn2)c([N+](=O)[O-])c1 (stereo not given)
0 | Cc1ccc(NC(=O)CSc2nc3ccccc3c(=O)n2CC2CCC(C(=O)NCc3ccco3)CC2)cc1Cl (stereo not given)

# 4 of the compounds above, as labelled records.
> COC(=O)C1C(=O)C2=C(CC1C)NC(C)=C(C(=O)OC1CCCC1)C2c1ccc(O)cc1 (stereo not given)
  FPR binding: 1

> COc1cccc(N2C(=O)C3C4C=CC(C4=C(C)C)C3C2=O)c1 (stereo not given)
  FPR binding: i

> C=CCc1c(C)c(C#N)c2[nH]c3ccccc3n2c1=O
  FPR binding: i

> COc1cc(C2C(C(=O)OC3CCCCC3)=C(C)NC3=C2C(=O)CC(C)(C)C3)cc(Br)c1O (stereo not given)
  FPR binding: 24

# Five compounds already listed, ordered by molar mass, lowest first.
FPR binding | mol
i | C=CCc1c(C)c(C#N)c2[nH]c3ccccc3n2c1=O
i | CCCc1cc(=O)oc2c(CN3CCCCC3)c(O)ccc12
i | COc1cc2c(C(=O)N3CCC4(CC3)OCCO4)cn(CC(C)C)c(=O)c2cc1OC
1 | COC(=O)C1C(=O)C2=C(CC1C)NC(C)=C(C(=O)OC1CCCC1)C2c1ccc(O)cc1 (stereo not given)
0 | Cc1ccc(NC(=O)CSc2nc3ccccc3c(=O)n2CC2CCC(C(=O)NCc3ccco3)CC2)cc1Cl (stereo not given)

# High-throughput results from PubChem.
